Compound activity (PubChem)
MARV entry inh: qHTS for inhibitors of binding or entry into cells for Marburg Virus. Marburg virus pseudotyped entry inhibition, cell reporter; control for the full effect not named in the record; about a third of the inactives were read at about 46 µM. Potency, µM (top dose mostly 37.8 µM), for inactives: top-dose activity change, negative = inhibition, most hits filed as inhibitors. hit rate 1.8% among 300,000. AID 540276, 2011; active = well fitted inhibition curve with a large enough effect; inconclusive = small, poorly fitted or top-dose-only effect, or effect the other way; inactive = flat fitted curve, though single readings scatter; tested in HEK293 cells; about a fifth of its hits are not listed in these tables; note: % is set by controls: 0 for no effect and ±100 for the full control effect; luciferase read-out
Cruzain Triton: qHTS Assay for Promiscuous and Specific Inhibitors of Cruzain (with detergent) | Potency, µM, inactives show max response, negative = inhibition, actives largely listed as inhibitors | Cruzipain (Trypanosoma cruzi), P25779 | hit rate 0.43% among 200,000 | purified cruzain, Z-FR-AMC fluorescence, 0.01% Triton;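 note: plate controls were neutral wells for no effect and buffer without enzyme for full effect; nearly all actives have a fitted effect of over 40% in size; top concentration of the series not given in the record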
Target sequence (P25779 123-467 limits assumed): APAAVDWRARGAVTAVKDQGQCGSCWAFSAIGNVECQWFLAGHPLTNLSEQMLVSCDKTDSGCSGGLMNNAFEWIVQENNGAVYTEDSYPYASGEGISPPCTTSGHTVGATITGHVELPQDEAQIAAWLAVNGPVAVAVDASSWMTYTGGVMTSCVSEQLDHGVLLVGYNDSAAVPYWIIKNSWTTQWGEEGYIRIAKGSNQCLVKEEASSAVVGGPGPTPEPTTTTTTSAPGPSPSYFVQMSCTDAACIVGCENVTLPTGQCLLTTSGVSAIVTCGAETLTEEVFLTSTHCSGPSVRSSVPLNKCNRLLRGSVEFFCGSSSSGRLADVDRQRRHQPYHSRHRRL
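Detergent-containing arm of a paired screen for aggregation-based inhibition: 0.01% Triton X-100 present. Cruzain at 1.5 nM cleaved 2 uM Z-FR-AMC at pH 5.5 with 5 mM DTT; AMC fluorescence gain over 60 s measured activity.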
SARS PLpro yeast: qHTS of Yeast-based Assay for SARS-CoV PLP | Potency, µM (top dose mostly 32.9 µM), without a hit: at the top dose activity, positive = growth rescue | AID 485353, 2010 | hit rate 0.19% among 330,000 | S. cerevisiae expressing SARS-CoV PLpro, growth rescue; control for the full effect not named in the record; active means well fitted rising curve with a large enough effect; inconclusive means small, poorly fitted or top-dose-only effect; inactive means no such curve, though single readings can be large or run the other way; note: 0% is about no effect; nearly all actives have a fitted effect of over 55% in size; growth read by luminescence after 48 h
StopGo reporter: High Throughput Screening for Foot and Mouth Disease Virus Antivirals. human cells with a luciferase reporter of 2A StopGo recoding; control for the full effect not named in the record. Potency, µM (top dose mostly 57.9 µM), for the others: top-dose signal change, negative = less light. hit rate 1.2% among 410,000. AID 1159524, 2015; active = well fitted falling curve with a large enough effect; inconclusive = small, poorly fitted or top-dose-only effect; inactive = no such curve, though single readings can be large or run the other way; tested in HEK293T cells; note: % is set by controls: 0 for no effect and ±100 for the full control effect; nearly all actives have a fitted effect of over 45% in size; luciferase light after 4 h
Lassa entry inh: qHTS for Inhibitors of binding or entry into cells for Lassa Virus | Lassa virus pseudotype entry inhibition, cell reporter; control for the full effect not named in the record | Potency, µM (doses to about 37.9 µM), inactives show at the highest dose activity change, negative = inhibition, usual class: inhibitors | hit rate 1.2% among 300,000 | AID 540256, 2011; active means well fitted inhibition curve with a large enough effect; inconclusive means small, poorly fitted or top-dose-only effect, or effect the other way; inactive means flat fitted curve, though single readings scatter; tested in HEK293 cells; note: % is set by controls: 0 for no effect and ±100 for the full control effect; nearly all actives have a fitted effect of over 50% in size; luciferase read-out
Cruzain noTriton: qHTS Assay for Promiscuous and Specific Inhibitors of Cruzain (without detergent); Cruzipain (Trypanosoma cruzi), P25779; purified cruzain, Z-FR-AMC fluorescence, no detergent; Potency, µM, for inactives: max response, negative = inhibition, actives largely listed as inhibitors; hit rate 2.3% among 200,000;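 note: plate controls were enzyme without inhibitor for no effect and buffer without enzyme for full effect; nearly all actives have a fitted effect of over 40% in size; top concentration of the series not given in the record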
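Detergent-free condition (0.00005% Triton X-100) in acetate buffer pH 5.5 with DTT. 1.5 nM enzyme and compound were pre-mixed 15 min, then 2 uM Z-FR-AMC substrate added; reaction progress from fluorescence change between first and third reads (60 s).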
RE007 growth inh: qHTS Assay for Inhibitors of the HIV-1 protein Vpr; S. pombe RE007 Vpr strain, BacTiter-Glo ATP luminescence, 24 h; control for the full effect not named in the record; Potency, µM (top dose mostly 92.2 µM), for the others: at the highest dose activity change, negative = less growth; hit rate 0.21% among 360,000; AID 651644, 2012; active = well fitted falling curve with a large enough effect; inconclusive = small, poorly fitted or top-dose-only effect; inactive = no such curve, though single readings can be large or run the other way;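 note: % is set by controls: 0 for no effect and ±100 for the full control effect; nearly all actives have a fitted effect of over 50% in size; the assay follows cell death caused by Vpr and the record does not say whether a fall means rescue or toxicity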
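Fission yeast strain RE007, carrying one chromosomally integrated HIV-1 vpr copy, was seeded at OD 0.01 in PMG+AL medium with 23 nL pinned compound. After 24 h at 30 °C and 99% humidity, viability was read by BacTiter-Glo luminescence.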
NS1 inh: qHTS Assay for Inhibitors of Influenza NS1 Protein Function; S. cerevisiae slowed by influenza A NS1, growth recovery by OD600; Potency, µM (highest dose often 46.1 µM), without a hit: at the top dose activity, positive = more growth; hit rate 0.4% among 270,000; AID 2326, 2010; active means well fitted rising curve with a large enough effect; inconclusive means small, poorly fitted or top-dose-only effect; inactive means no such curve, though single readings can be large or run the other way; note: nearly all actives have a fitted effect of over 50% in size
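OD600 was taken as the measure of yeast growth restored by compound in an NS1-expressing S. cerevisiae strain. Cells had been washed out of glucose medium and diluted 1:100 into galactose -URA medium, pH 6.0.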
Starred values were filed as active, the others as inactive; ? = inconclusive; · = not tested or not shown; [ ] = remark or other dose. Unless noted, calls come from the whole dose curve; as a rule, active = well fitted curve in the direction sought with a large enough effect; inconclusive = small, poorly fitted or top-dose-only effect, or another doubt; inactive = no such curve, though single readings can be large; an effect the other way counts as inactive or inconclusive. Potency is the fitted concentration of half-maximal effect.

SMILES	MARV entry inh	Cruzain Triton	SARS PLpro yeast	StopGo reporter	Lassa entry inh	Cruzain noTriton	RE007 growth inh	NS1 inh
CCOC(=O)c1c(C)[nH]c(C)c1S(=O)(=O)N1CCCC(C(=O)Nc2ccc(C)cn2)C1 (stereo not given)	·	-2.1%	·	2%	3%[46.1 µM]	-2%	·	·
CC(O)c1nc2ccccc2n1Cc1nnc(-c2ccc(Cl)cc2)o1 (stereo not given)	9%	2.7%	6%	23%	21%	6%	4%	-6%
O=C(CC1SC(N2CCOCC2)=NC1=O)Nc1cc([N+](=O)[O-])ccc1Cl (stereo not given)	-1%	·	2%	-14%	19%	·	-20%	·
CSc1ncc(Cl)c(C(=O)Nc2cc(C(F)(F)F)ccc2Cl)n1	0%[46.1 µM]	-2.2%	·	-10%	24%[46.1 µM]	-7%	·	·
COc1ccc(N2CCN(C(=O)c3cccnc3)CC2)c([N+](=O)[O-])c1	17%[46.1 µM]	·	4%	-15%	3%[46.1 µM]	·	5%	-5%
COc1ccc(/C(C)=N/NC(=S)NCCc2ccccc2)c(O)c1	?	·	-4%	14%	?	·	-26%	-59%
O=C(COC(=O)c1cccnc1Cl)NCCCc1ccccc1	2%	·	1%	-16%	10%	·	8%	·
O=S(=O)(NCc1ccc(Cl)cc1Cl)c1cccs1	?	·	-1%	34%[activator]	29%[46.1 µM]	·	-17%	-59%
CN1CCN(C(=O)CN(Cc2ccc(Cl)cc2)S(C)(=O)=O)CC1	?	1.6%	6%	0%	7%	-16%	0%	6%
Clc1ccc(OCCOCCN2CCCCC2)c(Br)c1	-2%	-3.8%	-8%	10%	-6%	-5%	-3%[3.69 µM]	-34%
COc1cc(CNC(=O)C2CCCN2S(=O)(=O)c2ccccc2)cc(OC)c1OC (stereo not given)	-12%[46.1 µM]	·	0%	-1%	-10%[46.1 µM]	·	9%	-1%
O=C(O)c1ccc(NS(=O)(=O)c2cccc(C(=O)Nc3ccccc3[N+](=O)[O-])c2)cc1	·	·	2%	2%	·	·	-4%	9%
COc1ccc(NC(=O)c2c(N)no[n+]2[O-])c(OC)c1	2%	·	-1%	-2%	?	·	-6%	·
CCN(CC)S(=O)(=O)c1ccc(CNC(=O)CN2C(=O)NC3(CCc4ccccc43)C2=O)cc1 (stereo not given)	6%	·	-9%	-23%	2%	·	5%	·
O=C(NC(Cc1ccc(O)cc1)C(=O)O)c1ccco1 (stereo not given)	8%[46.1 µM]	·	-1%	-2%	8%	·	-11%	2%
COCCCn1c(=N)c(C(=O)NCc2cccnc2)cc2c(=O)n3cc(C)ccc3nc21	-2%[46.1 µM]	-4.6%	·	5%	-1%[46.1 µM]	9%	·	·
CC(O)/C=C/c1ccc2ccccc2n1 (stereo not given)	?	-0.5%	-8%	-2%	?	-7%	-20%	-35%
N#CCCS(=O)(=O)c1ccc(N)cc1	11%	-0.7%	13%	33%[activator]	3%	-4%	-4%	0%
COc1ccc(-c2[nH]ncc2CN(CCO)CC23CC4CC(CC(C4)C2)C3)c(OC)c1	?	·	1%	-27%	-25%[46.1 µM]	·	-13%	-2%
CSc1ccn(CCC(=O)O)c(=O)n1	?	-0.4%	10µM*	-5%	?	3%	3%	-7%
CCOC(=O)CNC(=O)c1cccnc1Oc1ccc(Cl)cc1	-1%	·	0%	-9%	?	·	1%	2%
CN(c1ccc(C(=O)Nc2nccs2)cc1)S(=O)(=O)c1ccccc1	?	-7.3%	-9%	?	-28%	-7%	2%	3%
COc1ccc(N(Cc2ccccc2)C(=O)c2nc(SC)ncc2Cl)cc1	?	-4.8%	·	0%	-24%[46.1 µM]	5%	·	·
Cc1nn(-c2ccccc2)c2sc(C(=O)O)cc12	18%[46.1 µM]	3.5%	3%	17%	-4%	-12%	-10%	-79%
CCC(CC)COC(=O)C(C#N)c1nc2ccccc2nc1N1CCN(CC)CC1 (stereo not given)	5.2µM*	-1.7%	1%	?	?	3%	14%	-5%

More records:
SMILES	MARV entry inh	Cruzain Triton	SARS PLpro yeast	StopGo reporter	Lassa entry inh	Cruzain noTriton	RE007 growth inh	NS1 inh
CCCS(=O)(=O)Nc1c(OC)ccc2c1c(C(=O)OCC)c(C)n2C	?	-1.3%	10%	1%	13%	3%	·	-1%
Cc1ccc(N(CN2C(=O)NC(C)(C)C2=O)CN2C(=O)NC(C)(C)C2=O)cc1	6%	-0.1%	0%	5%	-1%	8%	5%	6%
CCOC(=O)c1c(C)oc2c1cc(NS(=O)(=O)c1ccc(C(=O)O)cc1)c1ccccc12	-4%[46.1 µM]	·	5%	6%	-30%	·	-7%	3%
COc1ccc(C(=O)NNC(=O)CN2CCC(n3nnc4cc(C(F)(F)F)ccc43)CC2)cc1	0%	2.6%	5%	·	-6%	0%	-7%	15%
O=C(NC1CCCCC1)c1ccccc1NC(=O)C1CC(=O)N(c2ccccc2)C1 (stereo not given)	-21%	-2.5%	24%	-25%	-1%	-6%	-5%	9%
Cc1ccc(S(=O)(=O)c2nc(-c3ccccc3)oc2N2CCN(c3ccccc3)CC2)cc1	5%[46.1 µM]	-1.9%	·	-24%	11%[46.1 µM]	3%	·	·
Cc1ccc(NC(=O)CN(C)C(=O)Cn2c(=O)oc3ccccc32)cc1	·	·	7%	12%	5%	·	2%	·
Cc1cc(C)cc(-n2c(SCC(=O)Nc3ccccc3)nc3c(oc4ccccc43)c2=O)c1	?	-0.6%	·	0%	·	?	·	·
CCOc1ccc2nc(NC(=O)c3cc(=O)c4cc(C)cc(C)c4o3)sc2c1	-6%[46.1 µM]	-1.0%	·	-8%	15%[46.1 µM]	-5%	·	·
COC(=O)C(C)Oc1ccc(-c2nccc(-c3cccs3)n2)cc1 (stereo not given)	16%	-10%	-15%	7%	-21%	10%	-13%	-9%
CC(=O)Nc1nonc1-c1nc2ccccc2n1N(C(C)=O)C(C)=O	-1%	-3.2%	?	-21%	8%	-18%	0%	-2%
O=S(=O)(Nc1ccccc1)c1cccc2nsnc12	16%[46.1 µM]	·	?	18%	-4%[46.1 µM]	·	-26%	0%
CC(OC(=O)c1cc(Cl)ccc1[N+](=O)[O-])C(=O)NC(C)c1ccc(F)cc1 (stereo not given)	-12%	-3.7%	17%	0%	-12%	9%	-2%	-2%
CCNC(=S)N1N=C2c3ccccc3CCC2C1c1ccc(F)cc1 (stereo not given)	?	·	0%	?	?	·	-3%	1%
CC(C)(C)C(=O)NC(=S)NNC(=O)c1ccncc1	?	·	3%	-18%	-19%[46.1 µM]	·	-17%	1%
COC(C(=O)Nc1ccnn1C1CCN(Cc2ccc(Cl)s2)CC1)c1ccccc1 (stereo not given)	-18%[46.1 µM]	·	-6%	-20%	2%[46.1 µM]	·	-1%	-15%
O/N=C/c1cccnc1Sc1ccccc1	-3%[46.1 µM]	·	1%	7%	9%	·	16%	·
Cc1ccc(OCC(O)CN2CCN(c3ccccc3)CC2)cc1 (stereo not given)	?	2.5%	6%	7%	10%	2%	8%	7%
CCOc1ccc(CN(C(=O)c2ccco2)C2CCS(=O)(=O)C2)cc1 (stereo not given)	21%	4.2%	2%	-2%	2%	2%	-6%	5%
O=C(Nc1ccc(Cl)cc1)P(=O)(O)c1ccccc1	8%	·	·	-7%	-1%	·	-5%	·
CCOC(=O)N1CCN(C(=O)COc2cc(=O)n(C)c3ccccc23)CC1	3%	-1.3%	4%	11%	12%	2%	-4%	-5%
CCCOc1cccc(C(=O)Nc2cccc(-c3nc4ncccc4o3)c2C)c1	·	-0.5%	·	?	-29%[46.1 µM]	8%	·	·
CC(=O)Nc1ccc(C(=O)NNC(=O)C2CC2)cc1	·	·	-2%	19%	·	·	9%	1%
CCOC(=O)c1cnc(-c2ccccc2)nc1Oc1ccc(C)cc1	-18%[46.1 µM]	0.0%	-4%	-29%	-3%	-6%	-1%	-15%
CN(C)S(=O)(=O)c1ccc(Cl)c(C(=O)NCCNC(=O)c2cc(S(=O)(=O)N(C)C)ccc2Cl)c1	·	·	14%	-10%	·	·	-6%	0%

(listing goes on)
SMILES	MARV entry inh	Cruzain Triton	SARS PLpro yeast	StopGo reporter	Lassa entry inh	Cruzain noTriton	RE007 growth inh	NS1 inh
COc1cccc(Nc2nc(N)nc(-c3oc4ccccc4c3C)n2)c1	-24%	-6.3%	-21%	20%	-26%	-6%	-19%	5%
CC(C)(C)c1ccc(NC(=O)COC(=O)c2ccc([N+](=O)[O-])s2)cc1	10%	-7.1%	-83%	0%	8%	-15%	·	-86%
COc1ccccc1CN1CC(C(=O)NCCc2cn[nH]c2)CCC1=O (stereo not given)	-34%	·	2%	-7%	-1%	·	20%	1%
Cc1ccc(S(=O)(=O)NNC(=O)c2cccs2)c(C)c1	?	-0.4%	14%	71%[activator]	10%	3%	0%	2%
Cc1sc2ncn(-c3ccccc3)c(=O)c2c1C	-17%[46.1 µM]	·	0%	25%	-1%	·	-4%	-5%
Cc1[nH]c2ccccc2c1N=Nc1ccccc1F	?	·	-23%	12%	3%[46.1 µM]	·	?	·
COc1ccc2[nH]c(=O)c(CN(C(=O)c3ccncc3)C(C)C)cc2c1	3%	3.6%	9%	-6%	3%	-16%	-18%	0%
CCc1nnc(NS(=O)(=O)c2ccc(NC(=O)COc3ccc4ccccc4c3)cc2)s1	22%[46.1 µM]	·	0%	-21%	-6%	·	-4%	6%
O=C1CC(c2cccc(Cl)c2)CC(O)=C1C=NC1CCCC1 (stereo not given)	?	-4.9%	-38%	-20%	0%	-10%	-4%	-33%
COc1ccc(-c2nn(CCC(=O)O)cc2/C=C/C(=O)O)cc1[N+](=O)[O-]	2%	-2.7%	18%	-17%	4%	-4%	-18%	7%
CCCCc1c(C)c2ccc(OC)c(/C(C)=N\O)c2oc1=O	9%	-2.0%	0%	-12%	-11%	3%	-10%	4%
